rRNA inh HTS – selective bacterial rRNA inhibition in E. coli | E. coli WT GFP vs humanized-ribosome RFP mutants, fluorescence, 24 h; stronger effect = lower value; DMSO median 0, no signal -100 | GFP signal change (wild-type ribosome), % (concentration not given with the values) | 1.6% of 350,000 active | AID 720706;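 active means significant combined selectivity score with lowered wild-type GFP, culture density cut under 30%, mutant RFP and density less affected; inactive means any of these conditions unmet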; further: one replicate is shown; some compounds called inactive have numbers as strong as hits
Beta apoptosis – blocks beta cell apoptosis | 0.8% of 300,000 active | INS-1E cytokine-induced death, ATP luminescence, 48 h; percent of positive-control rescue, neutral wells zero | protection from apoptosis, % (no concentration beside the values);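 active means all replicates at 75% or more, or half of them and the mean; inconclusive means half reach 75% but not the mean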;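 further: 0% = cytokine-treated negative control wells and 100% = positive control rescue; higher means more ATP so stronger rescue from cytokine killing; wells of about 40 µL received 100 nL stock; the first replicate is given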
RanGTP-Impb inh – disruptors of Ran-importin-beta complex formation – biochemical, FRET, CFP-Ran, YFP-importin-beta, homogeneous, primary screen; cell-free CFP-Ran/YFP-importin-beta FRET ratio; inhibition, % (no concentration beside the values); 1.1% of 300,000 active;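 active means most replicates above 15%; inconclusive means exactly half above 15%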;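 further: 0% = DMSO wells and 100% = Ran loaded with GDP instead of GTP; wells of about 40 µL received 100 nL stock; the first replicate is given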
T cruzi repl – blocks replication of Trypanosoma cruzi. inhibition, % (test concentration not listed). T. cruzi beta-gal in NIH3T3, luminescence, 90 h. 1.4% of 300,000 active. AID 1885;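 active means mean inhibition across valid replicates above about 55%, limit read from the data; inconclusive means mean below that limit but half or more replicates reach it; inactive means mean below it, under half of replicates reach it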;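 further: signal also drops with host cell toxicity which is not excluded here; 0% = plate median of DMSO wells and 100% = zero luminescence signal; higher percent means less beta-gal luminescence so fewer parasites; stock transfer was 50 nL into about 50 µL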
MLL AF4-AF9 inh – MLL-AF4/AF9 protein interaction inhibition; AID 651704; P42568; 0.47% of 350,000 active; inhibition, % at 10 µM; AlphaScreen, biotin-AF4 peptide binding to FLAG-AF9;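 active means every replicate reaching a set inhibition limit, whatever the replicate mean, cut at about 25% in these data; inconclusive means mean inhibition reaches that limit but some replicates miss it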;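 further: 0% = plate neutral control median and 100% = total signal loss; the record names both 10 and 1 µM as test concentration; the first replicate is given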
Target sequence (P42568 whole entry, looked up): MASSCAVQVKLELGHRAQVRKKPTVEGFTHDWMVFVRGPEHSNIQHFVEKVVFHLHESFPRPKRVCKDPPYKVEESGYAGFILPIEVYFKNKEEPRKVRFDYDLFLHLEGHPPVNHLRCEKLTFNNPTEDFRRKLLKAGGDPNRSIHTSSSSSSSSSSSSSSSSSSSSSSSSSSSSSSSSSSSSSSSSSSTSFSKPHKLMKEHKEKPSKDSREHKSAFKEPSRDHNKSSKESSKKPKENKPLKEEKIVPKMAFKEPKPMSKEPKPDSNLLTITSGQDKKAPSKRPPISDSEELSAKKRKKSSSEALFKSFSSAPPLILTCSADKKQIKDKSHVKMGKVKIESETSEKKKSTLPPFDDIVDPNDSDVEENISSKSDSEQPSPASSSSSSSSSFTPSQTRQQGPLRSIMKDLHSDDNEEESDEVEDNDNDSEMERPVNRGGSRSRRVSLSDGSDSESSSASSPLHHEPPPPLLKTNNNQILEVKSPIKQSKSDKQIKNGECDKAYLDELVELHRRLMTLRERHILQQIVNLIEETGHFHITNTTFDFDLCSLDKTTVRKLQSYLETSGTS
ALR inh – human ALR oxidase inhibition via reduced H2O2. P55789. purified ALR, DTT oxidation, H2O2 HRP-luminol luminescence. inhibition, % (no concentration beside the values). 3.8% of 290,000 active;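 active means mean and each replicate at 75% or more; inconclusive means only one of the two met; inactive means neither met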;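 further: stock transfer was 7.5 nL into about 7.5 µL; 0% = neutral wells and 100% = wells with inactivated enzyme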
Calb FLC – affects C. albicans growth with fluconazole; C. albicans CaCi-2 (fluconazole-resistant clinical isolate) + fluconazole, Alamar Blue growth, 48 h; growth inhibition, % (test concentration not listed); 0.57% of 300,000 active;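 active means most replicates above 75%; inconclusive means exactly half above 75%; inactive means most below 75%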;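 further: all wells also contain fluconazole at 8 µg/ml as a sub-toxic cotreatment; 0% = median of DMSO wells and 100% = median of geldanamycin control wells; wells of about 8 µL received 7.5 nL stock; the first replicate is given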
FGF22 binding – shifts melting point of recombinant human FGF22; Q9HCT0; recombinant FGF22 thermal shift, SYPRO orange fluorescence; percent of sucrose octasulfate shift, DMSO zero; calls only at 9.99 µM; 1.5% of 340,000 active; AID 651658;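 active means melting point raised past a set limit in the mean and every replicate; inconclusive means no clear call; three in four hits are not shown here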
Target sequence (Q9HCT0 whole entry, looked up): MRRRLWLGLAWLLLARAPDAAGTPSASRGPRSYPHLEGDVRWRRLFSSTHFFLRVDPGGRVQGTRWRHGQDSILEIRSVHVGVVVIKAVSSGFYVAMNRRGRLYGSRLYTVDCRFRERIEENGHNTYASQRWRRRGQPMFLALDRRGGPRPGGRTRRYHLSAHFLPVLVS
rRNA inh HTS OD600 – further read-out of rRNA inh HTS, marked with its call; OD600 change, %; measured here: OD600 growth;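 optical density of the mix in the first replicate; 0 = DMSO median and -100 = no signal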
rRNA inh HTS RFP – further read-out of rRNA inh HTS, marked with its call; RFP signal change, %; measured here: RFP humanized mutant strains;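 first replicate; 0 = DMSO median and -100 = no signal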
Starred values were filed as active, the others as inactive; i = inactive; ? = inconclusive; . = not tested or not shown. An excerpt; the hit share may differ from the screen's.

structure,rRNA inh HTS,rRNA inh HTS OD600,rRNA inh HTS RFP,Beta apoptosis,RanGTP-Impb inh,T cruzi repl,MLL AF4-AF9 inh,ALR inh,Calb FLC,FGF22 binding
O=C(COC(=O)[C@@H]1CC(O)CN1S(=O)(=O)c1ccc2c(c1)OCCO2)Nc1ccccc1F (stereo not given in full),-9,-1,6.0,2,-2.7,-4,-0.4,0,-3,i
CCOC(=O)/C=C1\CN(Cc2cc(OC)c(OC)c(OC)c2)S(=O)(=O)c2ccc(C(F)(F)F)cc21,5,14,-9.1,5,3.0,-2,1.9,.,-6,i
CC(C)c1nc2sc3c(=O)[nH]cnc3c2c2c1CCC2,.,.,.,2,4.1,-1,.,-1,60,.
O=C(Nc1cccc(O)c1)c1ccc(NC(=O)c2cccs2)cc1,-18,-21,-1.3,6,-0.9,5,-2.1,-4,0,i
O=C1C=C(c2ccc(-c3ccccc3)cc2)C[C@@H](c2ccc(F)cc2)C1,2,11,-21,-2,.,.,-1.4,-12,.,i
Nn1c(SCc2cccc(Br)c2)nnc1-c1cccnc1,5,1,3.7,-2,-0.7,-36,1.6,-7,-2,i
O=C(Cn1c(=O)oc2ccccc21)NC(=O)NCc1ccco1,.,.,.,-2,-6.1,-5,.,-1,6,.
O=C(CSCc1ccc([N+](=O)[O-])cc1)NC1CC1,6,10,-2.3,3,-2.3,-9,-3.0,.,11,i
CCCOc1ncnc2c1[nH]c1ccc(C)cc12,.,.,.,17,?,-3,.,4,11,.
CC(C)(C)c1ccc(-n2ncc3c2CCCC3NC(=O)c2ccncc2)cc1 (stereo not given),3,4,-2.5,23,-1.7,50,1.0,.,-26,i
CCOC1=NN(c2ncc(C(F)(F)F)cc2Cl)C(=O)/C1=C/N(C)C,10,8,5.8,-7,0.2,1,0.8,-2,22,.
CCOc1ccc(-c2nnc(N)s2)cc1,.,.,.,-2,?,-8,.,-3,-6,.
Cc1ccc(C)c(OCC(=O)Nc2ccc(N3CCOCC3)cc2)c1,0,6,-2.1,-3,-0.1,8,-1.1,15,34,i
Cc1ccc2oc(C(=O)NCC(c3ccco3)N3CCCC3)c(C)c2c1 (stereo not given),-19,-13,-3.3,-6,7.8,10,2.8,-3,-25,i
O=C(c1cccs1)N1CCN(C(=O)N2CCOCC2)CC1,.,.,.,-1,-0.6,3,.,6,?,.
CC(NC(=O)Nc1ccc(F)cc1)C(c1cccs1)N1CCCC1 (stereo not given),7,5,7.7,-4,-2.1,-12,-2.1,.,21,i
COc1ccc(/C=C2\SC(=S)N(CCC(=O)N(CCO)Cc3ccccc3)C2=O)cc1OC,5,8,0.1,-15,-5.8,65*,-11,-2,5,i
COc1ccc(OCC(O)CN(C2CCCCC2)C2CCCCC2)cc1 (stereo not given),.,.,.,6,6.7,20,.,-1,-35,.
O=C(CSc1nc(-c2ccco2)cc(C(F)(F)F)n1)NCCc1ccccc1,.,.,.,-3,3.9,22,.,-11,98*,.
O=C(NNc1c2ccccc2nc2ccccc12)c1ccc(O)cc1O,.,.,.,17,38*,-1,.,98*,-7,.
NC1=C(Br)C(=O)c2ccccc2C1=O,.,.,.,102*,0.6,-5,2.9,-35,-8,i
CCOC(=O)C1(Cc2cccc(OC)c2)CCCN(C(=O)CCSC)C1 (stereo not given),6,6,3.9,4,5.4,-6,-0.2,.,1,i
COC(=O)[C@H](Cc1c[nH]c2ccccc12)NC(=O)NCc1ccc(OC)cc1,4,-4,1.6,-2,0.3,-21,-4.1,10,-6,i
Cc1cc(C)c2oc(-c3ccc(Cl)c(NC(=O)c4ccc(C#N)cc4F)c3)nc2c1,.,.,.,-8,5.1,-11,.,6,1,.
COc1cccc(CNn2c(-c3cccc(C)c3)nc3ccccc3c2=O)c1O,.,.,.,4,1.2,-11,.,1,3,.
CN(C)c1ccnc(C(=O)O)c1,20,13,-1.4,2,5.4,-5,1.5,.,12,i
O=C(NC(=S)Nc1ccc(N2CCOCC2)cc1)c1cncc(Br)c1,.,.,.,-2,-1.7,-4,.,?,28,.
Cc1cc(C)c(S(=O)(=O)Nc2ncn[nH]2)c(C)c1,8,13,-2.9,-4,1.5,-11,-1.0,-3,-9,i
COC(=O)c1cc(C(=O)N2CCN(c3ncccn3)CC2)cc([N+](=O)[O-])c1,2,5,-3.4,5,5.1,8,?,-4,16,i
O=C(Nc1ccc2c(c1)N(S(=O)(=O)c1cccs1)CCC2)c1c(F)cccc1F,0,5,8.2,-1,-3.1,13,1.0,0,-4,i
CC(/C=C/c1ccccc1)=N\NC(=O)Cn1cncn1,6,12,0.9,-9,1.3,-7,-1.6,-2,-2,i
O=C(COC(=O)CNC(=O)c1ccccc1)Nc1ccc(S(=O)(=O)N2CCOCC2)cc1,15,-1,2.1,2,2.2,-9,0.5,.,-4,i
O=C(Nc1ccccc1)c1nsnc1C(=O)Nc1ccccc1,0,-5,-1.1,-2,?,-11,-0.8,-4,10,i
CCOc1ccccc1NC(=O)N1CCC(NC(=O)c2ccccc2C)CC1,.,.,.,2,?,-17,.,-15,?,.
CS(=O)(=O)Nc1ccc(C(=O)N2CCN(c3ccccc3)CC2)cc1,.,.,.,1,4.2,.,1.0,49,-4,i
Cc1ccc(C(=O)N/N=C\c2cccnc2)s1,13,14,0.6,1,2.5,-1,0.3,-4,5,i
COc1ccc(CCNC(=O)CN(c2ccc(OC)cc2)S(C)(=O)=O)cc1,15,10,1.1,-4,-4.4,-12,-0.1,-2,9,i
CCOc1ccc(S(=O)(=O)NCCC(=O)N2CCCC(C)C2)cc1 (stereo not given),6,4,-0.5,-2,2.1,-17,1.1,-2,-19,i
Cc1cc(Cl)ccc1NC(=S)NCC(O)c1ccccc1 (stereo not given),-13,-19,5.2,6,5.7,-6,-1.7,-8,-34,i
CCCCN(CC)CCCNC(=O)C1c2ccccc2C(=O)N(C)C1c1cn(C)c2ccccc12 (stereo not given),.,.,.,-11,7.8,5,.,-15,-15,.
COCC(C)NS(=O)(=O)c1ccc(C(=O)NCCCn2ccc3ccccc32)cc1 (stereo not given),-3,-11,-0.5,5,5.0,13,0.3,-24,-5,i
Cn1c(=O)c2c(nc(SCC(=O)c3ccc(F)cc3)n2C)n(C)c1=O,-3,-11,-2.9,1,-0.2,-7,1.2,5,8,i
COc1ccc(CNC2CC(C)N(C)CC2C)cc1OC (stereo not given),8,6,-2.4,-4,0.8,8,-0.8,-2,0,i
NCC(=O)c1cccc2ccc[n+]([O-])c12,22,22,0.2,-6,2.2,-17,-0.4,-4,7,i
O=C(Nc1cc(S(=O)(=O)N2CCCC2)ccc1Cl)c1ccncc1,5,6,1.0,-1,.,.,0.5,3,.,i
N=c1sccn1CC(=O)Nc1ccc([N+](=O)[O-])cc1Cl,15,10,4.6,6,-0.8,-5,7.4,1,-3,i
O=C(CCCCCN1C(=O)c2cccc3cccc(c23)C1=O)NCc1ccco1,-5,-1,-2.1,-5,2.3,10,-0.6,-28,4,.
COc1ccc(NC(=O)c2cccc3cccnc23)cc1S(N)(=O)=O,-2,-1,-2.4,-1,2.9,5,0.2,-3,-4,i
C#CCN1C(=O)C(O)(CC(=O)c2ccc(OC)c(OC)c2)c2ccccc21 (stereo not given),.,.,.,-7,6.5,5,-3.7,-6,-48,.
Cc1ccc(/C=N/NC(=O)CC2N=C(Cc3ccccc3)NNC2=O)cc1 (stereo not given),.,.,.,2,1.5,2,.,-29,2,.
CN1C2CCC1CC(NC(=O)CSCc1ccc(Cl)cc1Cl)C2 (stereo not given),0,-9,-0.4,-4,1.5,14,5.0,98*,1,i
O=C(Nc1nccs1)C1CCCCN1S(=O)(=O)c1ccccc1 (stereo not given),-9,-5,-3.6,-2,-1.0,-6,0.1,-14,1,i
NCC12CC3CC(C1)CC(CN)(C3)C2,.,.,.,-1,1.6,-9,.,-4,0,.
O=C(NCCN1CCCCC1)Nc1cccc(F)c1,7,16,2.7,-6,?,-6,0.7,-1,0,i
CCCOc1ccc(C(=O)N2CCCC2C(=O)O)cc1 (stereo not given),.,.,.,.,6.4,-9,.,-3,-3,.
CCOC(=O)C(C)Sc1ncnc2c1c(-c1ccccc1)cn2-c1ccc(OC)cc1 (stereo not given),.,.,.,-1,0.4,53,0.1,-5,3,i
Cc1nc(CNS(=O)(=O)c2ccc(Oc3ccccc3)cc2)cs1,.,.,.,71,-0.2,-9,.,4,20,.
COc1cc(C)ccc1OCCOCCOc1ccccc1Br,.,.,.,-2,-0.3,12,.,3,-8,.
Cc1cc(OCC(=O)NC(C)C)ccc1Cl,-5,-8,-7.2,-1,-0.7,0,-1.1,-12,0,i
Cc1ccc(S(=O)(=O)NC2c3cccc4cccc(c34)C2Sc2nc(C)cc(C)n2)cc1 (stereo not given),.,.,.,4,-6.4,41,.,-2,35,.
Cc1cc(C)cc(NC(=O)/C=C/c2ccc([N+](=O)[O-])s2)c1,6,6,0.2,-1,-0.2,47,12,.,4,i
CC(=O)c1ccc(S(=O)(=O)Nc2ccc(C(=O)NCC(c3cccs3)N3CCOCC3)cc2)cc1 (stereo not given),9,6,0.2,.,1.8,-11,1.8,-3,2,i
